# Bioassay records: PubChem, National Center for Advancing Translational Sciences (NCATS)
# Cruzain inh noDet – inhibitors of Trypanosoma cruzi cruzain without detergent; Potency, µM, without a hit: max response, negative = inhibition, hits mostly inhibitors; hit rate 2.3% among 200,000; AID 1476; purified cruzain, Z-FR-AMC fluorescence, no detergent; P25779;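 further: plate controls were enzyme without inhibitor for no effect and buffer without enzyme for full effect; nearly all actives have a fitted effect of over 40% in size; top concentration of the series not given in the record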
# Target sequence (P25779 123-467 limits assumed): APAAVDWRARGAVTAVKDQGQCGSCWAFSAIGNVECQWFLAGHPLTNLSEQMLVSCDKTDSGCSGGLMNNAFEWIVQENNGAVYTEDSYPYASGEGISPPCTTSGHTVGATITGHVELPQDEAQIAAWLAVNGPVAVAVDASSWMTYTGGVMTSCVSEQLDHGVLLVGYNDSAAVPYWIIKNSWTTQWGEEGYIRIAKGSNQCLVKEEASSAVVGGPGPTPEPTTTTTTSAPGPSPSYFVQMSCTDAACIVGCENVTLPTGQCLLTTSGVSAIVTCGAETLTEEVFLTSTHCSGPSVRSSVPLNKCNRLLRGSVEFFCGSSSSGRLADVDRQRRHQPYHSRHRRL
#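 Purified cruzain at 1.5 nM, pre-incubated 15 min with compound at room temperature in 100 mM sodium acetate pH 5.5, 5 mM DTT, 0.00005% Triton X-100. Reaction started with 2 uM Z-FR-AMC; AMC fluorescence increase over 60 s gives rate.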
# 2A StopGo – FMDV 2A StopGo reporter, luciferase signal. human cells with a luciferase reporter of 2A StopGo recoding; control for the full effect not named in the record. Potency, µM (top dose mostly 57.9 µM), without a hit: top-dose signal change, negative = less light. hit rate 1.2% among 410,000. AID 1159524; active = well fitted falling curve with a large enough effect; inconclusive = small, poorly fitted or top-dose-only effect; inactive = no such curve, though single readings can be large or run the other way; tested in HEK293T cells; further: nearly all actives have a fitted effect of over 45% in size; luciferase light after 4 h
# Cruzain Triton – inhibitors of Trypanosoma cruzi cruzain with detergent | purified cruzain, Z-FR-AMC fluorescence, 0.01% Triton | Potency, µM, without a hit: max response, negative = inhibition, hits mostly inhibitors | hit rate 0.43% among 200,000 | P25779 | AID 1478;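 further: plate controls were neutral wells for no effect and buffer without enzyme for full effect; nearly all actives have a fitted effect of over 40% in size; top concentration of the series not given in the record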
#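 Read-out: AMC fluorescence (360 nm excitation, 450 nm emission), four reads over 2 min, first-to-third difference used. Conditions: cruzain 1.5 nM, Z-FR-AMC 2 uM, pH 5.5 acetate, 5 mM DTT, 0.01% Triton X-100.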
# The depositor's hits bear a star; ? = inconclusive; & = joins results of further samples; [ ] = dose if it differs, or a comment. Unless noted, the call rests on the fitted dose curve; in most records, active means well fitted curve in the direction sought with a large enough effect; inconclusive means small, poorly fitted or top-dose-only effect, or another doubt; inactive means no such curve, though single readings can be large; an effect the other way counts as inactive or inconclusive. Unless noted, on the % scale 0 is the no-effect control and ±100 the full control effect; potency means the concentration at half of the fitted maximal effect.
1) COc1ccc2[nH]cc(CCNc3ccnc(-c4ccccc4C(F)(F)F)n3)c2c1
2) Cc1ccccc1-c1ccc2ncnc(NCc3cccnc3)c2c1
3) CNC(CC(=O)O)C(=O)O (stereo not drawn)
4) CNc1nc(-c2ccoc2)nc2ccccc12
5) O=C(c1ccco1)N1CCC2(CC1)CCN(c1cccc(-c3ccccc3)c1)CC2
6) COCCn1c(=O)c(-c2cc(F)cc(F)c2)nc2cnc(N3CCNCC3)nc21

Compound | 1 | 2 | 3 | 4 | 5 | 6
Cruzain inh noDet | 0% | -8% | 3% | -25% | 11% | -10%
2A StopGo | -17% | -22% | -7% | 3% | -16% | 1%
Cruzain Triton | -2.3% | -15% | 5.7% | -5.6% | -4.0% | -17%

# In a second layout: results already given.
# Below each SMILES: Cruzain inh noDet | 2A StopGo | Cruzain Triton
1) COc1ccc2[nH]cc(CCNc3ccnc(-c4ccccc4C(F)(F)F)n3)c2c1
→ 0% | -17% | -2.3%
2) Cc1ccccc1-c1ccc2ncnc(NCc3cccnc3)c2c1
→ -8% | -22% | -15%
3) CNC(CC(=O)O)C(=O)O (stereo not drawn)
→ 3% | -7% | 5.7%

# Following part.
7) Cc1ccccc1-c1nc(NC2CC2)c2ccccc2n1
8) Cc1noc(C)c1-c1nccc(N2CCOCC2)n1
9) Cc1cccc(CNc2ncncc2-c2ccccc2Cl)c1
10) CCS(=O)(=O)N(C)[C@@H]1c2cc(C#N)ccc2OC(C)(C)[C@H]1O
11) O=c1c(-c2ccc(F)c(F)c2)nc2cncnc2n1C1CC1
12) c1ccc(CNc2ncncc2-c2cccnc2)cc1

Compound | 7 | 8 | 9 | 10 | 11 | 12
Cruzain inh noDet | 4% | ? | 5% | 13%&10% | -4% | 1%
2A StopGo | -20% | -12% | -9% | -8%&-1% | -2% | -17%
Cruzain Triton | 3.5% | 5.6% | 0.6% | -2.0%&0.0% | -3.5% | 6.9%

13) COc1ccccc1-c1cc(=O)c2cccc(OC)c2o1
14) N#Cc1cccc(NC(=O)N2CCCC3(CCN(C(=O)c4cnccn4)CC3)C2)c1
15) N#CCCn1c(=O)c(-c2cccc(C#N)c2)nc2cnc(Oc3ccccc3)nc21
16) c1ccc(CNc2ccnc(-c3ccc4c(c3)OCO4)n2)cc1
17) COCCNc1ccnc(-c2ccccc2CN(C)C)n1
18) Cc1cc(F)c(Nc2ncnc3cc(OCc4ccccc4)ccc23)cc1O

Compound | 13 | 14 | 15 | 16 | 17 | 18
Cruzain inh noDet | 6% | -3% | -8% | 4% | -1% | ?
2A StopGo | 59%[activator] | -9% | -11% | 36%[activator] | -10% | -14%
Cruzain Triton | 3.3% | 4.1% | -7.6% | -7.9% | 0.3% | 3.8%

19) CCNc1ncc2nc(-c3ccc(F)cc3)c(=O)n(Cc3ccc(F)cc3)c2n1
20) CC[C@]12CCCN3CCC4(c5ccccc5NC4C(C(=O)O)C1)C32 (stereo partly drawn)
21) CN(C)c1ccc(-c2cncnc2NCCN2CCOCC2)cc1
22) COc1ccc(Oc2ncc3nc(-c4cn(C)c5ccccc45)c(=O)n(CCC#N)c3n2)cc1
23) O=c1c(-c2ccccc2)nc2cncnc2n1Cc1ccccc1Cl
24) COc1ccc(Oc2ncc3nc(-c4ccc(OC)cc4)c(=O)n(Cc4cccs4)c3n2)cc1

Compound | 19 | 20 | 21 | 22 | 23 | 24
Cruzain inh noDet | 10% | -5% | 5% | -6% | -23% | 8%
2A StopGo | -9% | 0% | -12% | 3% | -13% | -12%
Cruzain Triton | -2.1% | 1.8% | 1.5% | 1.8% | -1.5% | -0.4%

25) CC1=CC2C(CC1=O)C(C)=CCC2C(C)C (stereo not drawn)
26) O=C(c1cc(C(F)(F)F)cc(C(F)(F)F)c1)N1CCC2(CCCN(Cc3ccccc3)C2)CC1
27) CC(C)CN1CCC2(CC1)CCN(C(=O)c1cnccn1)CC2
28) CNc1ccccc1C(=O)N1CCc2c([nH]c3ccccc23)C1=O
29) C[C@@H]1CCC2[C@](C)(CO)C(O)CC[C@@]2(C)[C@@]12CC[C@](CO)(CCO)O2 (stereo partly drawn)
30) CCNc1ncc2nc(-c3cccs3)c(=O)n(CCc3ccccc3)c2n1

Compound | 25 | 26 | 27 | 28 | 29 | 30
Cruzain inh noDet | -2% | -5% | 10% | -14% | 5% | -7%
2A StopGo | ? | -2% | 2% | 44%[activator] | -5% | -20%
Cruzain Triton | 3.0% | -1.2% | -1.1% | -5.7% | 2.6% | -3.7%

# Entries of single compounds as entered above. Values in the order: Cruzain inh noDet, 2A StopGo, Cruzain Triton
# CNc1ccccc1C(=O)N1CCc2c([nH]c3ccccc23)C1=O as listed: -14%, 44%[activator], -5.7%
# O=C(c1cc(C(F)(F)F)cc(C(F)(F)F)c1)N1CCC2(CCCN(Cc3ccccc3)C2)CC1 as listed: -5%, -2%, -1.2%

# (further entries)
31) CN1CCN(c2ncc3ncc(=O)n(Cc4ccc(F)cc4)c3n2)CC1
32) CC(=O)OC1C[C@]2(C)C(C(C)=O)CCC2C2CCC3=CC(=O)CC[C@@]3(C)C12 (stereo partly drawn)
33) CC(C)CN1CCC2(CC1)CCN(C(=O)c1cc(C(F)(F)F)cc(C(F)(F)F)c1)CC2
34) Cc1ccc(O)c(C(CCN(C(C)C)C(C)C)c2ccccc2)c1 (stereo not drawn)
35) O[C@@H](Cc1ccncc1)C(Cl)(Cl)Cl
36) [N-]=[N+]=Nc1nc2c(N)ncnc2n1C1OC(CO)C(O)C1O (stereo not drawn)

Compound | 31 | 32 | 33 | 34 | 35 | 36
Cruzain inh noDet | -24% | 1% | 0% | -1% | 0% | -12%
2A StopGo | -8% | -6% | -13% | -8% | -23% | -29%
Cruzain Triton | -8.7% | 2.0% | 5.0% | 3.5% | -0.6% | -1.7%

37) Cc1cc(=O)c2c(O)cc(O)c(C)c2o1
38) O=C(c1cccc(F)c1)N1CCC[C@@]2(CCN(c3ccccn3)C2)C1
39) COc1ccc(C(=O)N2CCC[C@@]3(CCN(Cc4ccccc4)C3)C2)cc1
40) CCOC(OCC)P(=O)(O)CCCN
41) O=C(c1csnn1)N1CCC[C@@]2(CCN(c3ncccn3)C2)C1
42) O=S(=O)(c1ccccc1)N1CCC2(CCCN(Cc3nccs3)C2)CC1

Compound | 37 | 38 | 39 | 40 | 41 | 42
Cruzain inh noDet | -9% | -1% | 1% | 5% | 6% | 1%
2A StopGo | 8% | -5% | -1% | -6%&-3% | -10% | 3%
Cruzain Triton | -5.2% | 1.4% | -0.5% | -1.9% | -4.3% | -2.3%

43) COCCNc1ccnc(-c2ccccc2C)n1
44) COc1cccc(-c2nc(N3CCNCC3)c3ccccc3n2)c1
45) CC1(C)C(=O)C=C[C@@]2(C)C1=C(O)C(=O)[C@@]1(C)C2CC[C@@]2(C)C(c3ccoc3)C[C@H]3O[C@@]321 (stereo partly drawn)
46) CN1CCN(c2ncc3nc(-c4ccccc4)c(=O)n(Cc4cccs4)c3n2)CC1
47) CC(=O)N[C@H](Cc1c[nH]c2ccccc12)C(N)=O
48) O=C(c1cccc(F)c1)N1CCC2(CCCN(c3ccc(-c4ccccc4)cc3)C2)CC1

Compound | 43 | 44 | 45 | 46 | 47 | 48
Cruzain inh noDet | 5% | 0% | -2% | 0% | 12% | -12%
2A StopGo | -3% | 9% | 10µM* | -2% | -7% | -4%
Cruzain Triton | 1.3% | -1.3% | -1.2% | -14% | 1.6% | -3.2%

49) COc1ccc(CNc2ccnc(-c3c(C)noc3C)n2)c(OC)c1
50) CC12CC[C@@](C(=O)O)(C(=O)C1=O)C2(C)C
51) O=C(Nc1ccccc1)N1CC2(CCN(C(=O)c3cc(C(F)(F)F)cc(C(F)(F)F)c3)CC2)C1
52) CN(C)C(=O)c1ccc(-c2cc(Nc3ccccc3)ncn2)cc1
53) Cc1cc(O)c(C=O)c(O)c1C(=O)O
54) Cn1cccc1C(=O)N1CCC[C@@]2(CCN(Cc3ccc(C#N)cc3)C2)C1

Compound | 49 | 50 | 51 | 52 | 53 | 54
Cruzain inh noDet | 0% | -3% | ? | 2% | -1% | 3%
2A StopGo | -27% | -3% | 3% | 19% | -2% | -3%
Cruzain Triton | 4.3% | 7.0% | -2.5% | -0.4% | 1.0% | 6.0%

55) COc1ccccc1CCn1c(=O)c(-c2cc(F)cc(F)c2)nc2cncnc21
56) COc1ccc(C(C)C(=O)c2ccc(O)cc2O)cc1 (stereo not drawn)
57) Clc1ccc(C(c2ccc(Cl)cc2)C(Cl)(Cl)Cl)cc1
58) O=C(Nc1ccccc1)N1CC[C@@]2(CCCN(C(=O)c3cnccn3)C2)C1
59) CC1O[C@@H](OC2CC[C@@]3(C=O)C4CC[C@]5(C)C(C6=CC(=O)OC6)CC[C@@]5(O)C4CC[C@]3(O)C2)C(O)C(O)C1O (stereo partly drawn)
60) COc1cccc(-c2nccc(NCc3ccccc3)n2)c1

Compound | 55 | 56 | 57 | 58 | 59 | 60
Cruzain inh noDet | -3% | -10% | ? | -9% | -6% | 4%
2A StopGo | -11% | 0% | 3.5µM* | 4% | 0% | -19%
Cruzain Triton | 0.6% | -15% | -0.6%&-1.6% | 0.6% | 4.5% | -3.4%

61) CC(C)=CCCC1(C)C=Cc2c(O)c3c(c(CC=C(C)C)c2O1)OC12C(CC4CC1C(C)(C)OC2(C/C=C(/C)C(=O)O)C4O)C3=O (stereo not drawn)
62) O=C(Nc1ccccc1)N1CCCC2(CCN(C(=O)Oc3ccccc3)CC2)C1
63) Cn1c(=O)c(-c2ccccc2)nc2cnc(Oc3ccccc3)nc21
64) O=C(/C=C/c1ccc(O)cc1)c1ccccc1O
65) O=c1c(CCc2ccccc2)nc2cnc(N3CCOCC3)nc2n1Cc1ccc(F)cc1
66) COc1ccccc1N1CCN(C[C@@H](C(=O)NC(C)(C)C)c2ccccc2)CC1

Compound | 61 | 62 | 63 | 64 | 65 | 66
Cruzain inh noDet | 6% | -1% | ? | 3% | -1% | 5%
2A StopGo | -17% | -18% | 11% | -32% | -16% | 1%
Cruzain Triton | 1.4% | -0.4% | -6.3% | 5.5% | 6.6% | 2.7%

67) CCCCCCCCCCCCCCC(C(=O)O)C(O)(CC(=O)OC)C(=O)O (stereo not drawn)
68) COCC(=O)N1CCC2(CC1)CN(C(=O)Nc1cccc(C#N)c1)C2
69) CCC(=O)OCC(=O)C1(OC(=O)CC)C(C)CC2C3CCC4=CC(=O)C=CC4(C)C3(Cl)C(O)CC21C (stereo not drawn)
70) COCC(=O)N1CCC[C@@]2(CCN(C(=O)Nc3ccc(OC)cc3)C2)C1
71) COc1ccc(CNc2ccnc(-c3ccc(C(=O)N(C)C)cc3)n2)c(OC)c1
72) COc1ccc(-c2cc(=O)c3c(O)cc(O)c(-c4cc(-c5cc(=O)c6c(O)cc(O)cc6o5)ccc4OC)c3o2)cc1

Compound | 67 | 68 | 69 | 70 | 71 | 72
Cruzain inh noDet | 16% | -4% | ? | 2% | 9% | -28%
2A StopGo | -3% | -4% | 5% | 5% | -6% | -4%
Cruzain Triton | -11% | -0.2% | -8.9% | 1.2% | 2.1% | -5.6%

73) COCCn1c(=O)c(-c2cc(F)cc(F)c2)nc2cnc(Oc3ccc(OC)cc3)nc21
74) O=C(c1ccncc1)N1CCC[C@@]2(CCN(C(c3ccccc3)c3ccccc3)C2)C1
75) Cn1cccc1C(=O)N1CCC[C@@]2(CCN(Cc3nccs3)C2)C1
76) FC(F)(F)c1ccccc1-c1ccc2ncnc(NC3CCNCC3)c2c1
77) Cn1cc(-c2nc3cnc(N4CCNCC4)nc3n(Cc3ccc(F)cc3)c2=O)c2ccccc21
78) C[C@@]12CCC(O)C[C@H]1CCc1ccccc12 (stereo partly drawn)

Compound | 73 | 74 | 75 | 76 | 77 | 78
Cruzain inh noDet | 8% | 7% | -9% | -2% | -16% | -9%
2A StopGo | ? | 9% | -11% | -14% | -9% | 2%
Cruzain Triton | -0.4% | 0.5% | -1.6% | 6.2% | ? | 3.6%

79) CC(=O)OC1CCC2(C)C3CC(=O)C4(C)C(CC5OC6(CCC(C)CO6)C(C)C54)C3CC[C@H]2C1 (stereo partly drawn)
80) O=C(c1ccco1)N1CCC2(CC1)CCN(C(c1ccccc1)c1ccccc1)CC2
81) COC(=O)N1CCC[C@@]2(CCN(C(=O)NC(C)C)C2)C1
82) COc1ccc(NC(=O)N2CC3(CCN(S(C)(=O)=O)CC3)C2)cc1
83) O=C(c1cccc(F)c1)N1CCC2(CCCN(c3cccc(-c4ccccc4)c3)C2)CC1

Compound | 79 | 80 | 81 | 82 | 83
Cruzain inh noDet | -12% | 7% | 3% | 11% | ?
2A StopGo | 2% | -20% | -21% | -18% | -15%
Cruzain Triton | 0.6% | 4.2% | 6.1% | 7.1% | -2.3%

# The list is partial, so the mix of outcomes need not match the whole.
